High-throughput results: PubChem, several laboratories
eIF4H FP inh: human eIF4H binding inhibitors, primary screen, translation initiation inhibitor project, biochemical, uHTS, fluorescence polarization. inhibition, % at 35 µM. eIF4H fluorescence polarization binding assay. AID 2012, 2009. 290,000 tested, 0.94% active. Eukaryotic translation initiation factor 4H (Homo sapiens), Q15056;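 active = 50% or more with normal probe brightness, or confirmed in later tests; about a fifth of its hits are not listed in these tables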;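 also: calls also rest on retests at 20 µM and on dose response follow-up; 0% = protein and probe with vehicle and 100% = probe without protein; strong numbers were not always called active; many hits fall short of the cut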
UUG fidelity: modulators of yeast start codon fidelity, primary screen, whole organism, S. cerevisiae, single point, plate reader; 350,000 tested, 0.13% active; S. cerevisiae UUG-firefly luciferase reporter, luminescence/redox ratio; activity score, % at 18.7 µM; AID 602363, 2012;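 active = replicate mean at a twofold rise or more, about +100% in these data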;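 also: firefly luciferase made from a UUG start codon reports start codon fidelity; reporter light over untreated wells divided by growth signal over untreated wells; some hits fall short of that in this replicate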
Env fusion inh: inhibitors of HIV-1 Env-driven cell-cell fusion, primary screen, HeLa-JRFL effector, CEM21 target cells, luciferase; 360,000 tested, 1.1% active; inhibition, % at 12.3 µM; AID 651610, 2012;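 active = mean replicate inhibition score of at least 50 and every replicate individually at or above 50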;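 also: 0% = plate neutral controls and 100% = maraviroc near 300 nM; one replicate is shown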
MT1-MMP act inh: blockers of MT1-MMP proenzyme processing, primary screen, HT1080 RFP-PRO-GFP cells, GFP/RFP fluorescence; GFP/RFP ratio fluorescence, overnight; percent of plate control window, DMSO zero; GFP/RFP ratio change, % at 20 µM; AID 651647, 2012; Matrix metalloproteinase-14 (Homo sapiens), P50281; 360,000 tested, 0.061% active;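 active = GFP/RFP ratio change of at least 30% with cell ATP level not reduced by more than half and red fluorescence within 50% of control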; also: strong numbers were not always called active
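Assay system: RFP-PRO-GFP reporter HT1080 cells; read-out basis: GFP/RFP fluorescence ratio; benchmarks: DMSO wells and RFP-L50D-GFP cells; doses: 20 µM single dose, 1% DMSO; schedule: overnight cell settling, then overnight compound exposure, 37 °C, 5% CO2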
PABP FP inh: PABP poly(A) RNA binding inhibitors, primary screen, biochemical, fluorescence polarization, uHTS; inhibition, % at 35 µM; AID 2014, 2009; 290,000 tested, 1% active; Polyadenylate-binding protein 1 (Homo sapiens), P11940;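 active = 50% or more with normal probe brightness, or confirmed in later tests; about a fifth of its hits are not listed in these tables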;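 also: calls also rest on retests at 20 µM and on dose response follow-up; controls were probe without protein and protein plus probe with vehicle; some compounds called inactive have numbers as strong as hits; many hits fall short of the cut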
Target sequence (P11940 whole entry, looked up): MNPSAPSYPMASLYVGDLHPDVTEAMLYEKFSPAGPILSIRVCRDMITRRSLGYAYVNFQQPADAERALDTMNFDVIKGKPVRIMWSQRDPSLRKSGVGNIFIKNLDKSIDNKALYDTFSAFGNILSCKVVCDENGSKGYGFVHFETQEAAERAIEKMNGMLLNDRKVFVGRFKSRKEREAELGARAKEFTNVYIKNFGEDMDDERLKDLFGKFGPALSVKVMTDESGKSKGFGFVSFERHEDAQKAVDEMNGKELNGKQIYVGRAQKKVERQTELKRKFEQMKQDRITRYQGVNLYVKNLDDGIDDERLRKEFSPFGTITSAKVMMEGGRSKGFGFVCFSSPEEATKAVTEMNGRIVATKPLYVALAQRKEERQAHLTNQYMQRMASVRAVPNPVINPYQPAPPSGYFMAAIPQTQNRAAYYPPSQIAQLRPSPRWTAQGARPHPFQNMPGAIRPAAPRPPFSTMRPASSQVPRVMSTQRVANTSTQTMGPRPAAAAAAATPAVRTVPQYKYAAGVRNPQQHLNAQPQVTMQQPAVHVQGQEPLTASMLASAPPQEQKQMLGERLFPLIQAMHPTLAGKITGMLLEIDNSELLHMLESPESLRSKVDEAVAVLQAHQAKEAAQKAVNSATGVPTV
Rce1 inh: yeast Rce1p protease inhibitors, primary screen, biochemical, fluorescence, cell-free homogeneous. calls only. 290,000 tested, 0.27% active. CAAX prenyl protease 2 (Saccharomyces cerevisiae (strain ATCC 204508 / S288c)), Q03530. yeast membranes, quenched prenylated peptide cleavage fluorescence;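 active = fall in fluorescence gain of 50% or more versus controls, with final raw signal at or below 3038400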;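 also: plate controls were neutral control wells for no effect and wells lacking membranes for full effect; tested at 10 µM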
CSC inhib: cancer stem cell viability inhibitors, primary screen, luminescence | AID 2717, 2010 | inhibition, % at 7.5 µM | cancer stem cell-like cells viability | 300,000 tested, 1.1% active;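 active = mean at 75% or more and at least half the replicates too; tested in HMLE shEcad cells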;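 also: 0% = median of negative and 100% = median of positive control wells; the first replicate is given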
MT1-MMP act inh RFP: recorded beside MT1-MMP act inh, whose call it bears; RFP signal change, %; measured here: RFP expression control read;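 0 = vehicle wells; hits needed this value within 50% of zero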
* hit, by the source's call; i = inactive; · = not tested or not shown.

SMILES	eIF4H FP inh	UUG fidelity	Env fusion inh	MT1-MMP act inh	MT1-MMP act inh RFP	PABP FP inh	Rce1 inh	CSC inhib
CCC(C)Nc1nc2c(c(=O)[nH]c(=O)n2C)n1CCCc1ccccc1 (stereo unspecified)	4	-8	-5	4	3	4	·	-6
COc1ccccc1NC(=O)CS(=O)(=O)c1cn(CC(=O)N2CCOCC2)c2ccccc12	-4	·	4	0	-2	-4	i	0
COc1ccccc1-c1noc(-c2ccccc2C(=O)Nc2ccccc2)n1	-4	-18	·	-2	1	4	i	-18
CN(NC(=O)c1cccc(Cl)c1)c1nc(-c2ccccc2)nnc1C(F)(F)F	-7	·	·	-3	-14	3	i	15
CN(c1ccccc1N(C)S(=O)(=O)c1ccccc1)S(=O)(=O)c1ccccc1	·	-21	1	1	1	·	i	-8
c1ccc(C(Cc2nc(-c3ccccn3)no2)c2ccccc2)cc1	-9	-13	·	-7	-11	-2	i	4
COc1ccc(/C=N/N2C(=O)c3ccccc3C2=O)cc1	-4	·	6	-3	5	-8	i	4
COc1ccc(OS(=O)(=O)c2c(C)noc2C)cc1	-11	-15	11	-1	-1	-4	i	3
COC(=O)c1ccc(S(=O)(=O)NCCSc2nnc3c4ccccc4n(C)c3n2)cc1	4	·	·	8	-6	1	i	16
C=CCNC(=O)N1c2ccccc2Sc2ccccc21	-11	-10	0	-3	0	-8	i	0
COc1ccc(CN2C3CCC2CC(NC(=O)c2cc(OC)c(OC)c(OC)c2)C3)cc1 (stereo unspecified)	6	-1	10	4	5	-3	i	3
Cc1nc(Sc2nnnn2-c2ccccc2)c(C#N)c(C)c1C	-12	-10	9	0	-2	-5	i	-12
S=C(Nc1ccc(Cl)c(Cl)c1)N1CCOCC1	-15	·	-5	-4	-3	0	i	-2
Cc1cc(OC(=O)c2ccc(S(=O)(=O)N(C)C)cc2)c([N+](=O)[O-])c(=O)[nH]1	-8	·	-7	11	9	-9	i	-10
O=C(CCN1C(=O)C2CC=C(Cl)CC2C1=O)NCc1ccco1 (stereo unspecified)	10	4	·	1	4	-2	i	6
COc1cc(NC(=O)CCc2c(C)noc2C)c(C(=O)O)cc1OC	·	-20	-14	-2	-1	·	·	·
Clc1ccc(CSc2ncccn2)cc1	-5	-7	·	1	1	7	i	-17
Cc1ccccc1NC(=O)CSc1nnnn1C	-4	-14	·	4	1	-4	i	·
COc1ccc(CNC(=O)CC23CC4CC(CC(C4)C2)C3)cc1	0	-8	21	2	-1	1	i	·
COc1cccc(OCc2nnc(SCC(=O)OC3CCCCC3)n2C)c1	-12	2	-9	-1	-1	-9	i	-14
Cc1ccc(Nc2nnc(SCC(=O)NC(Cc3c[nH]c4ccccc34)C(=O)O)s2)cc1 (stereo unspecified)	2	7	3	-1	5	0	i	-9
CS(=O)(=O)c1ccc2nnn(OCC(=O)Nc3cccc(C#N)c3)c2c1	-4	·	10	1	2	-9	·	-9
Cn1c(SCc2cccc(F)c2)nnc1-c1cnccn1	-2	-9	1	3	1	-3	i	5
CC(=O)c1ccc(N/C=C/C(=O)c2ccc(Br)cc2)cc1	-13	-8	-47	2	-1	-16	i	2
Cn1nnc(NC(=S)NC(=O)Cc2ccccc2)n1	4	-18	5	0	3	-4	i	2
Cc1ccc(C(=O)O)c(C(=O)Nc2nc3ccccc3s2)c1	0	·	2	-1	0	-4	i	-10
COc1ccc(S(=O)(=O)N2CCCC(N(C)CCc3ccccc3)C2)cc1OC (stereo unspecified)	4	-1	4	1	-1	1	i	-7
O=S(=O)(c1ccccc1)N1CCN(c2cccc(Cl)c2)CC1	0	-21	9	1	-3	5	i	0
CC1CCCC(NC(=O)COC(=O)c2cc(S(=O)(=O)N3CCCCC3)ccc2N2CCOCC2)C1C (stereo unspecified)	-5	-3	-5	5	-4	-2	i	-6
C=CCCCCCCCCC(=O)NNC1=CC(=O)CC(C)(C)C1	-1	·	·	7	5	-1	i	-4
CCn1c(SCC(=O)Nc2ccc(OC)cc2)nc2c1c(=O)n(C)c(=O)n2C	0	-12	4	-1	2	8	i	·
CCCC(c1nnnn1Cc1ccco1)N1CCN(C(=O)c2ccco2)CC1 (stereo unspecified)	2	-10	·	-1	-1	1	i	-6
Cc1cc2cc(CN(Cc3cccs3)S(=O)(=O)c3ccc4c(c3)OCCO4)c(=O)[nH]c2cc1C	-3	·	-24	1	0	1	i	7
CC(=O)Nc1ccc(C2Nc3cc(C)c(C)cc3NC3=C2C(=O)CC(C)(C)C3)cc1 (stereo unspecified)	-9	-7	22	0	0	9	i	2
COc1ccc(C(OC(=O)c2cccs2)C(=O)NCC2CCCO2)cc1 (stereo unspecified)	-6	-2	1	8	2	-4	i	1
C/C(N)=C(/C#N)C(=O)COC(=O)Cc1coc2cc(C)ccc12	20	4	-3	-6	0	-10	i	12
Cn1c(SCCN2CCCC2)nnc1C1CCN(S(=O)(=O)c2ccc(F)cc2)CC1	-3	-18	-52	-2	-2	5	i	31
CC(C)CC(C(=O)O)N(Cc1ccccc1)Cc1ccccc1 (stereo unspecified)	7	-16	·	0	6	3	i	5
Cc1ccc2nc(SCC(=O)Nc3cccc(F)c3)nc(=O)n2c1	·	-4	-6	11	-10	·	i	5
Cc1ccc(C(=O)Nc2cccc(C(=O)NC3CCCCC3)c2)cc1	-10	-8	3	-1	-8	-2	i	15

14 entries from above, reformatted.
mol,eIF4H FP inh,UUG fidelity,Env fusion inh,MT1-MMP act inh,MT1-MMP act inh RFP,PABP FP inh,Rce1 inh,CSC inhib
Cc1ccc(Nc2nnc(SCC(=O)NC(Cc3c[nH]c4ccccc34)C(=O)O)s2)cc1 (stereo unspecified),2,7,3,-1,5,0,i,-9
CS(=O)(=O)c1ccc2nnn(OCC(=O)Nc3cccc(C#N)c3)c2c1,-4,·,10,1,2,-9,·,-9
Cn1c(SCc2cccc(F)c2)nnc1-c1cnccn1,-2,-9,1,3,1,-3,i,5
CC(=O)c1ccc(N/C=C/C(=O)c2ccc(Br)cc2)cc1,-13,-8,-47,2,-1,-16,i,2
Cn1nnc(NC(=S)NC(=O)Cc2ccccc2)n1,4,-18,5,0,3,-4,i,2
Cc1ccc(C(=O)O)c(C(=O)Nc2nc3ccccc3s2)c1,0,·,2,-1,0,-4,i,-10
COc1ccc(S(=O)(=O)N2CCCC(N(C)CCc3ccccc3)C2)cc1OC (stereo unspecified),4,-1,4,1,-1,1,i,-7
O=S(=O)(c1ccccc1)N1CCN(c2cccc(Cl)c2)CC1,0,-21,9,1,-3,5,i,0
CC1CCCC(NC(=O)COC(=O)c2cc(S(=O)(=O)N3CCCCC3)ccc2N2CCOCC2)C1C (stereo unspecified),-5,-3,-5,5,-4,-2,i,-6
C=CCCCCCCCCC(=O)NNC1=CC(=O)CC(C)(C)C1,-1,·,·,7,5,-1,i,-4
CCn1c(SCC(=O)Nc2ccc(OC)cc2)nc2c1c(=O)n(C)c(=O)n2C,0,-12,4,-1,2,8,i,·
CCCC(c1nnnn1Cc1ccco1)N1CCN(C(=O)c2ccco2)CC1 (stereo unspecified),2,-10,·,-1,-1,1,i,-6
Cc1cc2cc(CN(Cc3cccs3)S(=O)(=O)c3ccc4c(c3)OCCO4)c(=O)[nH]c2cc1C,-3,·,-24,1,0,1,i,7
CC(=O)Nc1ccc(C2Nc3cc(C)c(C)cc3NC3=C2C(=O)CC(C)(C)C3)cc1 (stereo unspecified),-9,-7,22,0,0,9,i,2

Continuation.
SMILES	eIF4H FP inh	UUG fidelity	Env fusion inh	MT1-MMP act inh	MT1-MMP act inh RFP	PABP FP inh	Rce1 inh	CSC inhib
CC(C1CCN(Cc2nc(C3CC3)no2)CC1)N1CCOCC1 (stereo unspecified)	0	-2	13	2	-3	-9	i	29
C=C(C)CN=c1scc(C)n1/N=C/c1ccco1	-3	-12	-70	-1	-5	-6	i	·
O=C(CN(C(=O)CNS(=O)(=O)c1ccccc1)C1CCCC1)NCc1ccco1	-7	5	·	-4	-3	2	i	9
CC(=O)c1ccc(OCc2cc(C(=O)N3CCC(Oc4ccccc4C)CC3)no2)cc1	12	-3	-22	-3	1	14	i	11
COc1ccc(-c2cc(C(F)(F)F)c3c(=O)n(-c4ccccc4)[nH]c3n2)cc1	4	-15	·	18	-4	5	i	-4
O=C(CNC(=O)c1cccs1)NCCN1CCN(c2ccccc2F)CC1	-6	-17	·	-6	-2	0	i	-7
COc1ccc(N2C(=O)c3cccc4cccc(c34)C2=O)nn1	16	-23	-49	-3	0	15	i	2
Cc1n[nH]c(=S)n1/N=C/c1ccc(-c2ccc(Cl)cc2)o1	·	-22	-18	2	3	·	i	12
CC(=O)c1ccc(N2CCN(C(=O)C(=O)c3c(C)[nH]c4ccccc34)CC2)cc1	-6	-2	-7	5	-3	-8	i	-1
CN(Cc1ccccc1)C(=O)c1ccc2c(c1)OCCO2	-2	-18	·	5	4	2	i	-4
O=C(O)/C=C/C(=O)NNC(=O)c1cccc(Br)c1	-17	·	-12	9	7	1	i	-12
O=C1CC(c2ccc(O)c(O)c2)Oc2c1ccc(O)c2O (stereo unspecified)	94*	-13	·	-7	3	53*	·	-3
COc1ccc(/C=C(/NC(=O)c2ccccc2)C(=O)N2CCCC2)cc1	-5	1	6	-2	-6	-4	i	·
NC(=O)C1(NC(=O)[C@@H]2CC3(CC(c4cccc(NC(=O)[C@@H]5CCC(=O)N5)c4)=NO3)CN2C(=O)Cc2ccc(C(F)(F)F)cc2)CC1 (stereo partly specified)	5	-4	-12	4	5	15	i	7
COc1cccc2cc(C(=O)Nc3ccccc3Cl)/c(=N/NS(=O)(=O)c3ccccc3)oc12	-5	-1	-1	3	3	1	i	-4
COc1ccc(Nc2nc3ccccc3s2)cc1	-3	·	-68	1	0	2	i	2
CCCC(C)NC(=O)CN1C(=O)NC2(CCc3ccccc32)C1=O (stereo unspecified)	1	-21	5	-3	1	6	i	-10
CCCCN(C(=O)COc1ccc(F)cc1)c1c(N)n(CC(C)C)c(=O)[nH]c1=O	·	-9	-4	1	8	·	·	·
Cc1ccc(OCc2cc(C(=O)NCC(C)(C)N3CCOCC3)no2)cc1C	15	6	-69	1	-3	-1	i	46
O=C(c1ccc2ccccc2c1)N1CCN(c2ccccc2)CC1	2	-8	22	3	4	10	i	-15
O=c1c2ccccc2oc2cc(-c3ccc4[nH]ccc4c3)ccc12	·	-22	i	3	-10	·	i	83*
O=C1c2ccccc2C(=O)N1C1CCCCC1	-19	7	2	-3	0	-10	i	-5
O=C(NCc1ccncc1)C1Cc2c(-c3ccc(Cl)cc3)ccnc2O1 (stereo unspecified)	·	-10	6	1	-5	·	·	·
O=C(O)c1cc(S(=O)(=O)N2CCCC2)ccc1Br	-1	-10	17	-2	0	13	i	-5
